From PubChem
CSC inhib: cancer stem cell inhibition. cancer stem cell-like cells viability, luminescence. actives 1.1% (n = 300,000). inhibition, % at 7.5 µM. AID 2717;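 active = mean at 75% or more and at least half the replicates too; inconclusive = mean and replicates disagree; tested in HMLE shEcad cells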;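 note: 0% = median of negative and 100% = median of positive control wells; the first replicate is given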
MT1-MMP act inh: MT1-MMP (human) activation inhibition; GFP/RFP ratio change, % at 20 µM; AID 651647; HT1080 RFP-PRO-GFP cells, GFP/RFP ratio fluorescence, overnight; percent of plate control window, DMSO zero; P50281; actives 0.061% (n = 360,000);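 active = GFP/RFP ratio change of at least 30% with cell ATP level not reduced by more than half and red fluorescence within 50% of control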; note: strong numbers were not always called active
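system = RFP-PRO-GFP reporter HT1080 cells | dosing = 20 µM single dose, 1% DMSO | timing = overnight cell settling, then overnight compound exposure, 37 °C, 5% CO2 | read-out basis = GFP/RFP fluorescence ratio | controls = DMSO and RFP-L50D-GFP cell wells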
Env fusion inh: inhibitors of HIV Env-mediated cell fusion. AID 651610. HeLa-JRFL Env/CEM21 cell fusion, luciferase. actives 1.1% (n = 360,000). inhibition, % at 12.3 µM;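 active = mean replicate inhibition score of at least 50 and every replicate individually at or above 50; inconclusive = only one of the two criteria met; inactive = mean below 50 and not all replicates reaching 50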;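 note: 0% = plate neutral controls and 100% = maraviroc near 300 nM; one replicate is shown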
eIF4H FP inh: inhibitors of RNA binding by human eIF4H; actives 0.94% (n = 290,000); Q15056; inhibition, % at 35 µM; eIF4H fluorescence polarization binding assay;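 active = 50% or more with normal probe brightness, or confirmed in later tests; inconclusive = above 50% with abnormal brightness, or retests that disagree; inactive = below 50% or failed in later tests; about a fifth of its hits are not listed in these tables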;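 note: calls also rest on retests at 20 µM and on dose response follow-up; 0% = protein and probe with vehicle and 100% = probe without protein; strong numbers were not always called active; many hits fall short of the cut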
Rce1 inhib: yeast Ras-converting enzyme inhibition; Q03530; yeast membranes, quenched prenylated peptide cleavage fluorescence; calls only; actives 0.27% (n = 290,000); AID 2563;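 active = fall in fluorescence gain of 50% or more versus controls, with final raw signal at or below 3038400; inconclusive = same 50% fall but final raw signal above 3038400; inactive = fall in fluorescence gain under 50%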;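 note: plate controls were neutral control wells for no effect and wells lacking membranes for full effect; tested at 10 µM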
Target sequence (Q03530 whole entry, looked up): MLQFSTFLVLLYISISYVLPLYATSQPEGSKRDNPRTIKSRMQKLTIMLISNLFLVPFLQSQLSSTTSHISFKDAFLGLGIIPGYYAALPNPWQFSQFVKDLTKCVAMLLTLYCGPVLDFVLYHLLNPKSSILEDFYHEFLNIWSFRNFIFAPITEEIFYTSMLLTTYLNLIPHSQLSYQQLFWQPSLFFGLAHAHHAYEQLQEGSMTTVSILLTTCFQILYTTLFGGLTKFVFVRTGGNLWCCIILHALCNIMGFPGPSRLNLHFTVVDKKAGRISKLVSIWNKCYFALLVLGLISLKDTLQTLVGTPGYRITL
PABP FP inh: blocks human PABP binding to poly(A) RNA | AID 2014 | inhibition, % at 35 µM | actives 1% (n = 290,000) | fluorescence polarization | P11940;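 active = 50% or more with normal probe brightness, or confirmed in later tests; inconclusive = above 50% with abnormal brightness, or retests that disagree; inactive = below 50% or failed in later tests; about a fifth of its hits are not listed in these tables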;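 note: calls also rest on retests at 20 µM and on dose response follow-up; controls were probe without protein and protein plus probe with vehicle; some compounds called inactive have numbers as strong as hits; many hits fall short of the cut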
Target sequence (P11940 whole entry, looked up): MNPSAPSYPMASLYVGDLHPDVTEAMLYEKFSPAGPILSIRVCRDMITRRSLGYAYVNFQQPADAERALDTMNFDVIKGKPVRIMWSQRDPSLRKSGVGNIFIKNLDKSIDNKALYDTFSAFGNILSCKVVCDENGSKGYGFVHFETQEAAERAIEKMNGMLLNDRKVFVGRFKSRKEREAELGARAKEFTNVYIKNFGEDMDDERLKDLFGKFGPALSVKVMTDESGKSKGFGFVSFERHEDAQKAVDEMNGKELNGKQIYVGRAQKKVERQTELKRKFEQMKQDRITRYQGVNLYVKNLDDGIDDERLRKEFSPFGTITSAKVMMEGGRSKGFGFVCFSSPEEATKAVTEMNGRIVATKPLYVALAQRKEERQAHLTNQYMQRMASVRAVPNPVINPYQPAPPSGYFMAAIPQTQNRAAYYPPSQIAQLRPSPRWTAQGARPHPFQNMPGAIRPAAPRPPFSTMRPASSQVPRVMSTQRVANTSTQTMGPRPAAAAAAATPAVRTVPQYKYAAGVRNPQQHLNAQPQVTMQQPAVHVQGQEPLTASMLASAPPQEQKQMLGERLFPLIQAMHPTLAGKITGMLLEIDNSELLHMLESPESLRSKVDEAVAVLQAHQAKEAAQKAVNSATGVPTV
Yeast UUG start: modulators of start codon recognition fidelity in yeast | activity score, % at 18.7 µM | actives 0.13% (n = 350,000) | S. cerevisiae UUG-firefly luciferase reporter, luminescence/redox ratio;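 active = replicate mean at a twofold rise or more, about +100% in these data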;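 note: firefly luciferase made from a UUG start codon reports start codon fidelity; reporter light over untreated wells divided by growth signal over untreated wells; some hits fall short of that in this replicate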
eIF4H FP inh retest: recorded beside eIF4H FP inh, whose call it bears; inhibition, %; compound at 20 µM; confirmation average;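 mean of two retest wells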
PABP FP inh retest: second read-out of PABP FP inh, no call of its own (marks repeat the call); inhibition, %; compound at 20 µM; confirmation repeats;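 mean of two retest wells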
MT1-MMP act inh RFP: recorded beside MT1-MMP act inh, whose call it bears; RFP signal change, %; measured here: RFP expression control read;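 0 = vehicle wells; hits needed this value within 50% of zero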
Starred values were filed as active, the others as inactive; i = inactive; ? = inconclusive; nt = no result given; & = joins results of further samples. Compounds as they come; 2.9% or so of the library scored in one or more.

SMILES	CSC inhib	MT1-MMP act inh	MT1-MMP act inh RFP	Env fusion inh	eIF4H FP inh	Rce1 inhib	PABP FP inh	Yeast UUG start	others
CC(=O)Nc1ccc(NC(=O)c2cc(-c3ccccc3)nc3ccccc23)cc1	nt	5	-3	-7	1	i	-9	12
CCOC(=O)N1CCc2c(sc(NC(=O)c3ccc(Cl)s3)c2C(N)=O)C1	86*	nt	nt	nt	20	nt	-7	nt
Cc1cc([N+](=O)[O-])nn1CC(=O)Nc1sc2c(c1C(N)=O)CCCC2	-16	-2	-3	16	5	i	25	-6
S=C(Nc1ccc(Br)cc1Cl)NC1CCN(Cc2ccccc2)CC1	13	1	-6	10	-8	i	-1	nt
CC1CCCC(NCC(=O)Nc2ccc(C(N)=O)cc2)C1C (stereo unspecified)	-1	-1	0	9	-11	nt	-10	nt
NNC(=O)c1ccc(CN2CCCCC2)o1	-10	6	6	28	-10	i	2	nt
CC(=O)O[C@@H]1C[C@H]2C(C)(C)C(=O)C=C[C@]2(C)[C@H]2CC[C@@]3(C)[C@H](c4ccoc4)OC(=O)[C@H]4O[C@]43[C@@]21C	17	7	-10	-63	2	i	6	-8
O=C(c1ccc(N2CCCCS2(=O)=O)cc1)N1CCN(c2ccc(N3CCOCC3)nn2)CC1	-7	-1	2	2	-12	i	-9	-2
CCCCN(CC)Cc1c(C)[nH]c2ccccc2c1=O	nt	-4	6	nt	-1	i	15	-12
CCN(CC)C(=O)C[n+]1ccc(C(N)=O)cc1	-4	1	1	19	8	nt	-6	-8
COc1ccc(CCNS(=O)(=O)c2cc(C(=O)O)c(Cl)cc2Cl)cc1	-5	1	0	-15	-2	i	-22	nt
COCCCNC(=S)N/N=C/c1ccc(OC)cc1	-11	0	1	0	-3	i	2	-16
COc1ccc2c3n(nc2c1)CCN=C3c1cc(Cl)c(N)c(Cl)c1	40	-16	-7	12	nt	nt	nt	-14
O=S(=O)(NCC(c1cccnc1)N1CCN(c2ccc(F)cc2)CC1)c1ccccc1 (stereo unspecified)	-3	0	1	nt	nt	i	nt	-1
COc1cc(OC)cc(C(=O)NNC(=O)c2ccc3c(c2)OCCO3)c1	-2	3	3	-10	nt	nt	nt	-7
O=c1[nH]c2ccccc2n1Cc1ccc(Cl)cc1	-9	2	-3	nt	-22	i	2	-16
COc1cccc(-c2ccc(SCC(=O)N3CCc4ccccc43)nn2)c1	-6	nt	nt	nt	-1	i	-4	nt
Cc1cccc(CN2CCN(c3ccccn3)CC2)c1	-6	2	1	-20	nt	i	nt	2
COCCOc1ccc(C(F)(F)F)cc1NC(=O)c1ccc(C)cc1	-6	1	-1	6	-13	i	-2	-7
Cc1nc(NS(=O)(=O)c2ccccc2)sc1C(C)(C)C	0	2	0	21	2	i	13	3
O=C(NCCCN1CCCC1=O)c1cncc(Br)c1	-10	4	6	-31	14	i	4	-16
CC(Oc1ccc(Cl)cc1Cl)C(=O)NCCC1=CCCCC1 (stereo unspecified)	4	-3	-3	23	-6	i	20	-15
CC(=O)Oc1c(C)cc(Cl)cc1C(=O)Nc1ccc([N+](=O)[O-])cc1Cl	120*	-23	-37	?	-9	i	-1	nt
CN(C)/N=C/c1ccc(Sc2ccccc2[N+](=O)[O-])o1	-14	nt	nt	22	-12	i	-5	nt
O=C(CSC1=NS(=O)(=O)c2cc(Cl)ccc2N1)NCc1ccccc1	-6	1	5	-146	nt	i	nt	-16
NC(=O)COc1ccc(Cc2ncc(C(F)(F)F)cc2Cl)cc1	-6	1	0	8	-5	nt	4	nt
Cc1cc2c(cc1S(=O)(=O)N1CCOCC1)NC(=O)CO2	-1	3	4	-9	-12	i	2	-10
O=C(COC(=O)c1ccc[nH]c1=O)NC1CC1	-23	-4	-1	3	nt	nt	nt	-13
O=C(N/N=C/c1ccccn1)c1ccc([N+](=O)[O-])cc1	13	4	7	7	3	i	2	nt
C/C(=N\NC(=O)C1CC1)c1ccc(Cl)c(Cl)c1	-14	2	2	-431	1	i	-6	-4
O=C(O)c1ccc(-n2ccnc2)c([N+](=O)[O-])c1	7	-2	-5	-9	3	i	-10	-6
Cc1ccc(C2(C)NC(=O)N(CC(=O)Nc3ccc(S(=O)(=O)Nc4nccs4)cc3)C2=O)cc1 (stereo unspecified)	-7	4	1	nt	nt	i	nt	-5
COc1ccc([N+](=O)[O-])cc1N(CC(=O)NCCCOC(C)C)S(C)(=O)=O	-3	-2	4	-2	0	i	26	-14
C/C(Cn1nc([N+](=O)[O-])cc1C)=N\NC(=O)COc1c(Cl)cc(Cl)cc1Cl	-3	-3	2	nt	-4	i	14	nt
Cc1ccccc1CS(=O)(=O)CCC(=O)O	7	-2	-1	1	0	i	20	nt
O=C(NCCCc1ccccc1)c1ccccc1O	-8	-1	-7	-6	-1	i	1	nt
O=C(O)CC12CC3CC(C1)CC(n1ncc(N4CCC5(CC4)OCCO5)c(Cl)c1=O)(C3)C2	0	-1	-3	-1	34	i	42	nt
CC1CCN(S(=O)(=O)c2c[nH]c(=O)[nH]c2=O)CC1	-1	4	0	-4	nt	i	nt	-3
O=c1c(Cl)c(Cl)cnn1Cc1ccc(F)cc1	-23	0	0	-38	-17	i	3	-7
O=C(OCc1c(-c2ccccc2)ncc2ccccc12)c1cccs1	-2	4	5	13	nt	nt	nt	-14
Cc1cc(NC(=O)CCC(=O)N(c2cccnc2)C(C(=O)NC2CCCC2)c2ccccc2)no1 (stereo unspecified)	nt	-2	6	nt	-8	i	-10	-9
Cc1cccc(NC(=O)C2CCC(CNC(=O)[C@@H]3Cc4ccccc4CN3)CC2)c1 (stereo partly specified)	7	-1	1	1	nt	i	nt	nt
Cc1c(N(C)C)c(=O)n(-c2ccccc2)n1C	-17	0	7	nt	nt	nt	nt	14
Cc1nc(C)n(C(=O)N(c2ccccc2)c2ccccc2)n1	-8	10	0	-21	-4	i	6	12
CCOC(=O)[C@H]1[C@H]2COc3ccc(Br)cc3[C@@H]2N2C(=O)CN(Cc3ccco3)C(=O)[C@@]12C	-26	1	2	-32	nt	nt	nt	-7
CC(=O)N1c2ccc(S(=O)(=O)N3CCCCC3)cc2CC1C(=O)Nc1ccccc1C(F)(F)F (stereo unspecified)	-13	-2	-1	10	-13	i	-3	nt
COc1cccc(C(=O)N(C)CC2CCN(CCc3cccc(C(F)(F)F)c3)CC2)c1	1	5	3	2	10	i	1	-6
CCC(=O)NC(=S)Nc1ccc(NC(=O)COc2ccc([N+](=O)[O-])cc2)cc1	-12	4	-5	-26	-1	i	-12	nt
COc1ccccc1CCC(=O)Nc1ccc(C)cc1Cl	8	-8	-1	-19	-4	i	0	nt
S=C(NCCc1ccccc1)NCc1ccccc1Cl	5	1	0	-22	-5	i	-4	nt
CCCOc1ccccc1C1C(C(=O)OC)=CN(C(C)C)C=C1C(=O)OC	-5	-2	-3	nt	3	i	10	-1
CCN(C(=O)COC(=O)c1cc(S(=O)(=O)N(C)C)ccc1Cl)C1CCS(=O)(=O)C1 (stereo unspecified)	nt	2	3	-10	nt	i	nt	-14
COc1ccc(CCNC(=O)COC(=O)c2cnc(C)cn2)cc1	5	-1	1	nt	-11	i	-5	nt
COc1ccccc1N1CCN(C(CNC(=O)c2ccco2)c2cccnc2)CC1 (stereo unspecified)	-13	-1	-11	3	3	i	-8	13
O=C(C1=C[C@@H]2[C@H]3C(=O)N(c4cccc(Cl)c4)C(=O)[C@H]3[C@@H](C(=O)c3ccc(Cl)cc3)N2C=C1)c1ccccc1	-2	1	42	nt	44	i	67	-23	eIF4H FP inh retest=-8;PABP FP inh retest=-2
C[C@@H]1CN([C@H](C)CO)C(=O)CCCn2nncc2CO[C@H]1CN(C)Cc1ccc(C(F)(F)F)cc1	nt	2	4	11	nt	nt	nt	-4&1
Cc1ccnc(NC(=O)c2ccc(Cl)c(NC(=O)C(C)Oc3ccccc3)c2)c1 (stereo unspecified)	3	3	-4	7	-13	i	-10	nt
Cn1cccc1CC(=O)NNC(=O)Nc1cccc(Cl)c1	-3	-1	3	-1	-6	i	0	nt
COc1ccc(C(=O)NCN2CCN(c3ccccc3)CC2)cc1OC	-4	2	4	6	nt	nt	nt	-3
O=C(c1cccc(S(=O)(=O)Nc2ccccc2F)c1)N1CCN(c2ccccc2F)CC1	1	-3	-4	25	-4	i	4	nt

Brought forward from above: 2 compounds, then new ones.
SMILES	CSC inhib	MT1-MMP act inh	MT1-MMP act inh RFP	Env fusion inh	eIF4H FP inh	Rce1 inhib	PABP FP inh	Yeast UUG start	others
COc1ccc(C(=O)NCN2CCN(c3ccccc3)CC2)cc1OC	-4	2	4	6	nt	nt	nt	-3
O=C(c1cccc(S(=O)(=O)Nc2ccccc2F)c1)N1CCN(c2ccccc2F)CC1	1	-3	-4	25	-4	i	4	nt
CC(C)(C#N)Cc1cc(CC(C)(C)C#N)cc(C(C)(C)C)c1	-28	-1	1	33	2	i	3	5
CCCCN(C=O)c1c(CC)nc2ccc(C(=O)NCCN(C)C)cn12	nt	3	5	-11	nt	nt	nt	-2
COc1ccccc1CNC(=O)CCCNC(=O)c1ccc(Cl)cc1	-12	3	4	9	7	i	17	-9
N#Cc1cccc(-c2csc(C(O)(c3ccccc3)C(F)(F)F)n2)c1 (stereo unspecified)	nt	-5	-5	-25	nt	nt	nt	-2
CCC1CCc2sc(C(=O)NCc3ccccn3)cc2C1 (stereo unspecified)	nt	-3	-5	14	-5	i	8	-22
O=C(O)c1ccccc1OCC1CCCO1 (stereo unspecified)	6	-2	1	6	-1	i	3	-10
COc1ccc(CNC(=O)Nc2cccc(Cl)c2)cc1	-1	2	2	nt	4	i	-2	-12
CCC(=O)Nc1c(-c2ccc(OC)cc2)c(=O)c2ccccc2n1C	-5	5	8	-45	2	i	-8	-7
N#Cc1cnc(Nc2nc3ccccc3o2)nc1-c1ccccc1	nt	10	-3	nt	4	i	-2	-13
Cc1[nH]c2ccccc2c1SCC(=O)N1CCCc2ccccc21	-4	0	-5	69*	-8	i	-4	14
CCC(C)Nc1nc(N)c([N+](=O)[O-])c(N2CCCCCC2)n1 (stereo unspecified)	0	5	-14	20	7	i	-2	-16

Arranged by heavy-atom count (lowest first): six of the compounds above.
SMILES	CSC inhib	MT1-MMP act inh	MT1-MMP act inh RFP	Env fusion inh	eIF4H FP inh	Rce1 inhib	PABP FP inh	Yeast UUG start	others
O=C(O)c1ccccc1OCC1CCCO1 (stereo unspecified)	6	-2	1	6	-1	i	3	-10
COc1ccc(CNC(=O)Nc2cccc(Cl)c2)cc1	-1	2	2	nt	4	i	-2	-12
CC(C)(C#N)Cc1cc(CC(C)(C)C#N)cc(C(C)(C)C)c1	-28	-1	1	33	2	i	3	5
Cc1[nH]c2ccccc2c1SCC(=O)N1CCCc2ccccc21	-4	0	-5	69*	-8	i	-4	14
COc1ccccc1CNC(=O)CCCNC(=O)c1ccc(Cl)cc1	-12	3	4	9	7	i	17	-9
CCCCN(C=O)c1c(CC)nc2ccc(C(=O)NCCN(C)C)cn12	nt	3	5	-11	nt	nt	nt	-2
